PINK1 modulator: changes PINK1 expression. PINK1 immunofluorescence, high-content cytometry, 24 h. Potency, µM (series often up to 76.6 µM), for inactives: at the highest dose activation (PINK1 increase), usual class: activators. actives 0.2% (n = 410,000). AID 624263; active = well fitted activation curve with a large enough effect; inconclusive = small, poorly fitted or top-dose-only effect; inactive = flat fitted curve, though single readings scatter; cell line not stated here;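 note: potency is the fitted concentration of half-maximal effect; % of control where 0% means no effect; nearly all actives have a fitted effect of over 65% in size; a mitochondrial uncoupler was the plate control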
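Decision-based qHTS: stable cells, 24 h exposure to five compound concentrations, CCCP as control. Fixed cells stained for PINK1 plus nuclear, mitochondrial and cell markers, cytometer read.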
TRPML1 ag: agonists of human TRPML1 channel; actives 0.12% (n = 410,000); TRPML1-expressing cells, Ca2+ dye fluorescence, FDSS; host cell line not named in the record; reference of the full effect not given here; activation, % (test concentration not listed); AID 624414; in the data active = activation above about 50%; inconclusive = about 30% to 50%; inactive = below about 30%; note: 0% is about no effect; the text of the record puts the active cut at 80%
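Cells: TRPML1-DL, 1X Tet inducer, ~16 h at 37 degrees C/5% CO2. Dye: ABD Ca8 no-wash + quencher, 45-90 min RT. Read: 10 s baseline, compound add, 110 s agonist phase; 54-4 EC80 (4uM final), 110 s antagonist phase.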
Menin-MLL FL inh: displaces fluorescein MLL peptide from human menin. AID 1766. 290,000 tested, under 10 active. FP activity change, % at 61.4 µM. Fluorescence polarization, fluorescein-MLL peptide displacement from menin; inconclusive = falling polarisation curve, or a change in total fluorescence; inactive = total fluorescence flat and polarisation flat or rising; no compound was filed as active; the % refers to the polarisation; negative = inhibition;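 note: % of control where 0% means no effect; inhibitors lower the polarisation; unlabelled MLL peptide was the positive control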
Sfp PPTase inh: Sfp phosphopantetheinyl transferase inhibition. Biochemical Sfp PPTase activity, qHTS. actives 3.5% (n = 310,000). Q9F4F7. Potency, µM, for inactives: max response, negative = inhibition, actives largely listed as inhibitors; active = well fitted inhibition curve with a large enough effect; inconclusive = small, poorly fitted or top-dose-only effect, or another doubt; inactive = no such curve, though single readings can be large or run the other way;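 note: the enzyme is Sfp with the accession as filed and its product quenches rhodamine fluorescence; potency is the fitted concentration of half-maximal effect; 0% = enzyme reaction without inhibitor and -100% = no enzyme wells; top concentration of the series not given in the record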
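Fluorescence-quenching assay with 15 nM Sfp, 5 uM rhodamine-CoA and 12.5 uM BHQ-2-labelled ybbR peptide in pH 7.6 Hepes/MgCl2 buffer. Enzyme was pre-incubated with compound for 15 min at room temperature. Rate was taken from the 30-min fluorescence change (525/598 nm).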
TRPML1 blocker: human mucolipin-1 channel inhibition | activity change, negative = inhibition, % (test concentration not listed) | actives 0.02% (n = 390,000) | TRPML1-inducible cells, Ca2+ dye fluorescence, FDSS; hits give low values; inhibition of EC80 agonist-evoked calcium signal | AID 624415 | Q9GZU1; in the data active means activity change below about -50%; inconclusive means about -30% to -50%; inactive means above about -30%;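 note: stimulus is agonist 54-4 at its EC80 concentration; % is set by controls: 0 for no effect and ±100 for the full control effect; compound concentration not given in the record; the text of the record puts the active cut at -80%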
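Tet-induced TRPML1-DL cells loaded with Ca8 no-wash calcium dye were read kinetically on FDSS. Compound addition was followed by EC80 agonist 54-4 (4 uM final); inhibition was read over 110 s.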
ClpP mod: qHTS Assay for Activators of ClpP. ATP-dependent Clp protease proteolytic subunit (Bacillus subtilis (strain 168)), P80244. purified B. subtilis ClpP, FRET peptide cleavage, 20 min. Potency, µM (top dose mostly 57.5 µM), inactives show at the highest dose activity change, negative = active. actives 1.9% (n = 340,000). AID 651965, 2013; active = well fitted falling curve with a large enough effect; inconclusive = small, poorly fitted or top-dose-only effect; inactive = no such curve, though single readings can be large or run the other way; note: potency is the fitted concentration of half-maximal effect; the source files actives as falling curves though it sought activators and does not explain the sign; nearly all actives have a fitted effect of over 65% in size; many hits overshoot -100%
Target sequence (P80244 whole entry, looked up): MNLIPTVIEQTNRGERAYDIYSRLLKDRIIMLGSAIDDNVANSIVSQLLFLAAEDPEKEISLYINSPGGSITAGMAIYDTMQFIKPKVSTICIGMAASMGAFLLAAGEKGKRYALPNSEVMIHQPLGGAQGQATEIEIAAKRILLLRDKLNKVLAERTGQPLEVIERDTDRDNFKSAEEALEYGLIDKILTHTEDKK
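Purified B. subtilis ClpP, 10 microg/mL final in Tris/HCl pH8 with KCl, BSA, glycerol and Tween-20, cleaved an Abz/nitrotyrosine-quenched decapeptide. Fluorescence (ex 320, em 430) was read at 0 and 20 min at room temperature. Delta was normalized to 5.8 microM ADEP and DMSO/no-enzyme controls.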
TRPV1 PAM: potentiators of human vanilloid receptor 1 (TRPV1). Q8NER1. TRPV1-expressing cells, Fluo-8 calcium influx, capsaicin EC20 potentiation; host cell line not named in the record; control for the full effect not named in the record. potentiation, % at 8.33 µM. actives 0.02% (n = 320,000). AID 540277; active means potentiation above 80%; inconclusive means 30% to 80%; inactive means below 30%; note: 0% is about no effect
Target sequence (Q8NER1 whole entry, looked up): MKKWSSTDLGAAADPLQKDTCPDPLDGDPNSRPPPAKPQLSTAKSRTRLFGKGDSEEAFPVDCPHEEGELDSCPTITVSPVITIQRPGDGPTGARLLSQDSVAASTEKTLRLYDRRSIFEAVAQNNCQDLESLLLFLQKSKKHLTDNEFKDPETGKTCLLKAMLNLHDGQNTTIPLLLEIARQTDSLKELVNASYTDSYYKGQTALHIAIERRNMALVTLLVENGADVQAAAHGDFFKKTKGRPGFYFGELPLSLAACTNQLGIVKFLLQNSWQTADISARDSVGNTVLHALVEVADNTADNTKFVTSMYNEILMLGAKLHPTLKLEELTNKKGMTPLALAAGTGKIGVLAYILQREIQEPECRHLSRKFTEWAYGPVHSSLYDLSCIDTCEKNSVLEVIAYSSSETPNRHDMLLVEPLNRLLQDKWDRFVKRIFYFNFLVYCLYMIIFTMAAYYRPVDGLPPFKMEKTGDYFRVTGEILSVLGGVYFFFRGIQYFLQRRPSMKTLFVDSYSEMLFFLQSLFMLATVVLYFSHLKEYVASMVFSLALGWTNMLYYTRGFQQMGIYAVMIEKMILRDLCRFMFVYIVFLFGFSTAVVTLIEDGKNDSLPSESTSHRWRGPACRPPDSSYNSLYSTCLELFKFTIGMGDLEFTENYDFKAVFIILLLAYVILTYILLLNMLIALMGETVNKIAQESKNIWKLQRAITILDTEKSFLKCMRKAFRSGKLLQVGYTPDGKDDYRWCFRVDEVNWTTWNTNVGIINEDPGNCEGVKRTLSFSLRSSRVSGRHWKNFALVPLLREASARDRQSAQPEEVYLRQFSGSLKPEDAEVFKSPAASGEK
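TRPV1-expressing cells were cultured overnight at 35.5C and loaded with Fluo-8 calcium dye for 40 to 90 min at room temperature. After a 10 s baseline, compound was added and calcium influx was read kinetically for 3 min (ex 480/em 520 nm).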
An asterisk follows results filed as active; u = inconclusive; x = no result given; [ ] = another dose, or the depositor's remark.

SMILES	PINK1 modulator	TRPML1 ag	Menin-MLL FL inh	Sfp PPTase inh	TRPML1 blocker	ClpP mod	TRPV1 PAM
CCNc1nc(N2CCOCC2)nc(N(c2ccccc2)c2ccccc2)n1	5.9%	-0.3	0.1	1%	-13	-0.3%	1
CCS(=O)(=O)N1Cc2ccccc2CC1C(=O)Nc1cccc(C)c1 (configuration not stated)	-1.9%	0.7	-2.5	15%	-27	-3.9%	-6
CC(C)(C)C(=O)Nc1ccc(S(=O)(=O)Nc2ccccn2)cc1	0.0%	0.2	-1.6	19%	-1	x	1
Cc1ccc(-n2cc(C(=O)Oc3ccc(F)cc3)c3ccccc3c2=O)cc1	0.4%	2.0	x	x	32	-2.5%	x
O=C(O)c1ccc(-c2ccc(-c3ccccc3)cc2)s1	x	x	0.2	4%	x	x	-3
Cc1cccc(C)c1NC(=O)CN(C)C(=O)CC1OC(=O)c2ccccc21 (configuration not stated)	3.5%	0.6	x	x	-6	x	-1
CCCNC(=O)Cn1c(=O)cnc2ccccc21	0.3%	-0.1	4.0	23%	4	u	5
COc1ccccc1N1CCN(C(=O)c2cc3c(=O)n4cccc(C)c4nc3s2)CC1	3.8%	1.1	0.1	-21%	-3	x	-1
CCC(C)NC(=O)Cn1c(=O)n(-c2ccc(OC)cc2)c(=O)c2ccc(C(=O)NCc3ccc(C)cc3)cc21 (configuration not stated)	2.3%	0.5	2.6	-8%	11	x	2
COc1ccc(-c2ccc(OC)cc2C(=O)O)cc1	2.3%	-0.3	-3.2	8%	-9	-1.9%	5
Cn1ncc(N=Cc2ccccc2O)c1C(=O)N1CCOCC1	1.2%	0.0	1.0	-3%	15	0.2%	0
Cc1ccccc1C(=O)NC(=S)Nc1ccc(Cc2ccncc2)cc1	4.3%	0.3	-0.1	12%	9	0.7%	-5
C=CCn1cnc2c(c1=O)c1nc3ccccc3nc1n2-c1ccccc1	x	x	6.3	-30%	x	x	-11
O=C(O)C(Cc1ccccc1)n1cnnn1 (configuration not stated)	0.8%	1.0	2.9	7%	12	-0.4%	-1
CCNC(=O)NC(=O)CSc1ccc(S(=O)(=O)N2CCOCC2)cn1	0.9%	1.4	x	x	39	-1.1%	x
Nc1nonc1-n1nnc(C(=O)N/N=C/c2ccccc2Br)c1CN1CCCC1	5.9%	-0.2	4.7	1%	8	x	12
CCCc1nc2ccccc2c(C(=O)OCc2nnc(-c3cc(OC)c(OC)c(OC)c3)o2)c1CC	-0.3%	1.7	2.1	-23%	12	-2.4%	-1
CC(O)c1nc2ccc(C(=O)O)cc2[nH]1 (configuration not stated)	-0.1%	-0.1	2.5	-4%	-4	1.0%	10
O=[N+]([O-])c1ccc2[nH]nc(-c3ccccc3)c2c1	1.5%	3.2	3.6	23%	-4	-0.8%	3
Cc1nc(NC2CCCCC2)c2nnn(Cc3ccccc3Cl)c2n1	4.4%	2.3	2.0	-6%	-5	-4.9%	u
COc1ccccc1C(=O)Nc1ccncc1	-2.1%	-0.2	3.2	17%	-1	x	-6
COCCCN1C(=O)C(CC(=O)NCCCN(C)C)CC(C(=O)N(C(C)C)C(C)C)=C1C (configuration not stated)	0.1%	-0.4	x	x	-8	0.5%	x
O=C(O)CC/C(=C/c1cccc(NC(=O)c2ccccc2Cl)c1)c1nc2ccccc2s1	-0.7%	0.9	x	x	10	x	x
Cc1ccc2nc(-c3cccc(Br)c3)c(Cc3ccccc3C(F)(F)F)n2c1	5.3%	-0.6	x	x	-18	u	x
NCCCC[C@@H]1NC(=O)c2cc([N+](=O)[O-])cc(F)c2NCCCC[C@@H](C(N)=O)NC(=O)CNC1=O	0.9%	0.0	0.6	4%	3	-4.1%	7
Cc1ccc(-n2ncc(C(=O)NCCCN3CCN(C)CC3)c2C2CCN(C(=O)OC(C)(C)C)CC2)cc1	1.1%	0.1	x	x	4	0.6%	x
O=C(CCS(=O)(=O)c1ccccc1)Nc1nccs1	0.6%	0.1	5.4	4%	-3	0.8%	-1
CSc1ccccc1OCc1cc(C(=O)NCCn2nc(C)cc2C)no1	0.7%	2.7	-3.6	4%	-22	-2.1%	19
CCOc1ccc(OCC)c(NC(=O)Cn2c(C)nc3ccccc3c2=O)c1	1.3%	0.6	-0.9	6%	-3	x	21
CCOc1ccc(NC(=O)c2nc(S(=O)(=O)Cc3ccccc3C)ncc2Cl)cc1	11%	-0.6	x	x	x	-6.5%	x
CCc1nn2c(=O)cc(COc3ccc(/C=C(\C#N)C(=O)Nc4ccc(F)cc4)cc3OC)nc2s1	2.2%	-0.2	x	x	2	-2.9%	x
CC(=O)Nc1ccc(NC(=O)CN2CCCC(C)C2)c(Cl)c1 (configuration not stated)	0.7%	-0.6	2.5	-12%	4	-3.9%	-20
Cc1ccc(S(=O)(=O)Nc2ccc(NC(=O)Nc3cccc(C(F)(F)F)c3)cc2)cc1	-1.5%	0.3	7.3	29%	29	1.8%	-11
COc1ccc(CN2C(=O)c3cccnc3C2=O)cc1S(=O)(=O)NC(C)C	2.1%	0.4	-1.1	15%	-21	-0.2%	-13
CN(C(=O)Cn1nc(Cc2cccnc2)c2ccccc2c1=O)c1cccc(C(F)(F)F)c1	3.4%	0.0	x	x	8	-3.5%	x
CCn1c(=O)c(CCC(=O)N2CCN(c3ccccn3)CC2)c(C)c2c(C)nn(-c3ccccc3)c21	-1.6%	-1.2	x	-21%	-12	-14%	0
O=C(O)CSc1nc2c(cnn2-c2ccccc2)c(=O)n1-c1ccc(Br)cc1	-1.6%	0.0	-3.3	21%	-10	0.5%	3
CC1=CC2=NC(=O)/C(=C/c3coc4ccc(Cl)cc4c3=O)C(=N)N2O1	12%	u	u	-1%	-8	x	x
Cc1ccc(NC(=O)CSc2nc3c([nH]c4ccccc43)c(=O)n2-c2ccccc2)c(C)c1	21%	0.0	x	x	-5	-8.0%	x
Cc1ccc(C23CC4CC(CC(C(=O)NC(C(=O)O)C(C)C)(C4)C2)C3)cc1 (configuration not stated)	-1.2%	-0.4	-4.5	11%	-14	x	-1
COc1cc(F)cc(C2=CC(=O)C[C@H](c3ccc(F)cc3)C2)c1	1.7%	1.1	x	x	10	-5.0%	-3
C[C@@]12C(=O)N(c3cccc(F)c3)C(=O)N1[C@@H]1c3ccccc3OC[C@@H]1[C@H]2c1ccccc1	0.4%	0.6	x	x	14	2.4%	x
COc1cc(Cl)nn(-c2ccccc2)c1=O	-1.1%	-0.6	-0.3	0%	-15	0.8%	-1
CN1CCN(S(=O)(=O)c2ccc(NC(=O)c3ccc(F)cc3Cl)cc2)CC1	-0.6%	0.4	2.7	3%	14	-0.1%	3
CN1C(=O)C(CC(=O)Nc2ccc(F)cc2)N(Cc2cccs2)C1=S (configuration not stated)	u	-0.4	4.9	-5%	7	x	-8
CC(=O)N1CCc2cc(S(=O)(=O)NCCCN3CCCCC3)ccc21	1.6%	-0.4	x	9%	30	-0.6%	-7
CC(C)(C)Nc1nc(Oc2ccc(=O)[nH]n2)nc(N2CCOCC2)n1	0.9%	-0.3	6.7	10%	-13	x	1
CC(O)c1cccc(NC2=CC(=O)CC(C)(C)C2)c1 (configuration not stated)	0.9%[38.3 µM]	0.3	7.3	9%	15	0.2%	8
Cc1ccc(OCCCCNC(C)(C)C)c([N+](=O)[O-])c1	-1.3%	0.2	-2.7	-28%	-8	-3.6%	-7
CCCNC(=O)Cn1c(=O)/c(=C\c2ccc(-c3ccc([N+](=O)[O-])cc3)o2)s/c1=C\C(=O)C(C)(C)C	u	127*	u	13%	-13	-4.4%	18
Cc1cc(Cl)ccc1OCc1nnc(-c2ccccc2C)o1	-0.3%	0.7	x	x	-3	-2.1%	2
CCSc1nnc(NC(=O)COc2ccccc2[N+](=O)[O-])s1	-0.4%	0.0	-1.3	-7%	-4	x	9
N#Cc1ccccc1Sc1ccccc1C(=O)Nc1ccc2ccccc2c1	1.7%	0.5	1.5	17%	1	-27%	10
CCCn1nc(NC(=O)COC)c2cc3cccc(C)c3nc21	0.7%	2.3	5.2	13%	18	u	-1
O=C(CSc1ncn[nH]1)c1ccc2c(c1)OCCO2	-0.9%[38.3 µM]	1.6	3.6	u	-14	-0.6%	3
Cc1ccc(OCC(=O)n2cnnc2N)c(C)c1	x	x	-0.7	10%	x	x	7
COCc1nnc(NC(=O)C23CC4CC(CC(C4)C2)C3)s1	6.9%	1.0	x	x	-4	1.2%	10
COc1cc2nc(COc3ccccc3[N+](=O)[O-])oc(=O)c2cc1OC	-0.7%	0.2	3.9	1%	14	20%	-3
COc1ccc(CNc2cccc3[nH]c(C(F)(F)F)nc23)cc1	u	0.8	7.6	-1%	7	x	4
O=C(COc1ccc(F)cc1)N1CCC(c2ccccc2)C1 (configuration not stated)	-0.4%	1.0	0.3	7%	2	-0.9%	-13

3 consecutive records already listed:
SMILES	PINK1 modulator	TRPML1 ag	Menin-MLL FL inh	Sfp PPTase inh	TRPML1 blocker	ClpP mod	TRPV1 PAM
COc1cc(F)cc(C2=CC(=O)C[C@H](c3ccc(F)cc3)C2)c1	1.7%	1.1	x	x	10	-5.0%	-3
C[C@@]12C(=O)N(c3cccc(F)c3)C(=O)N1[C@@H]1c3ccccc3OC[C@@H]1[C@H]2c1ccccc1	0.4%	0.6	x	x	14	2.4%	x
COc1cc(Cl)nn(-c2ccccc2)c1=O	-1.1%	-0.6	-0.3	0%	-15	0.8%	-1

Continued.
SMILES	PINK1 modulator	TRPML1 ag	Menin-MLL FL inh	Sfp PPTase inh	TRPML1 blocker	ClpP mod	TRPV1 PAM
CC1(C)CC(NC(=O)COc2ccc3ccccc3c2)CC(C)(C)N1	1.3%	0.5	1.3	10%	-10	-1.9%	0
CSc1ccccc1NC(=O)c1cc2c(=O)n3ccccc3nc2s1	24%	3.0	-1.1	-5%	20	u	4
Cc1ccc(NC(=O)C(C)OC(=O)C2CC3CCCC(C2)C3=O)cc1S(=O)(=O)N1CCOCC1 (configuration not stated)	2.6%	2.0	x	x	20	-0.5%	x
COC(=O)CCC(=O)c1ccn(S(=O)(=O)c2ccccc2)c1	-2.3%	1.9	-14	1%	3	-2.5%	-7
CCOc1ccccc1C(=O)Nc1c(C(=O)Nc2ccc(F)cc2)oc2ccccc12	5.6%	0.0	x	x	28	32µM*	x
CC(C)Nc1nc(-c2cccnc2)nc(-c2ccc(Cl)cc2)c1C#N	9.9%	1.9	-1.0	u	-4	x	9
